Screening results deposited in PubChem by National Center for Advancing Translational Sciences (NCATS).
GLA inh pH 4.5 = qHTS Assay for Inhibitors of Human alpha-Galactosidase at pH 4.5. Alpha-galactosidase A (Homo sapiens), P06280. purified enzyme, 4-MU-alpha-Gal fluorescence, pH 4.5. activity change, negative = inhibition, % at 105 µM. 230,000 tested, under 10 active. AID 1467, 2008; inconclusive = small, poorly fitted or top-dose-only inhibition, or a rising curve; inactive = flat fitted curve, though single readings scatter; no compound was filed as active;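 note: 0% = full activity with enzyme and -100% = basal without enzyme; dose as in the result columns while the protocol names 77 µM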
Target sequence (P06280 whole entry, looked up): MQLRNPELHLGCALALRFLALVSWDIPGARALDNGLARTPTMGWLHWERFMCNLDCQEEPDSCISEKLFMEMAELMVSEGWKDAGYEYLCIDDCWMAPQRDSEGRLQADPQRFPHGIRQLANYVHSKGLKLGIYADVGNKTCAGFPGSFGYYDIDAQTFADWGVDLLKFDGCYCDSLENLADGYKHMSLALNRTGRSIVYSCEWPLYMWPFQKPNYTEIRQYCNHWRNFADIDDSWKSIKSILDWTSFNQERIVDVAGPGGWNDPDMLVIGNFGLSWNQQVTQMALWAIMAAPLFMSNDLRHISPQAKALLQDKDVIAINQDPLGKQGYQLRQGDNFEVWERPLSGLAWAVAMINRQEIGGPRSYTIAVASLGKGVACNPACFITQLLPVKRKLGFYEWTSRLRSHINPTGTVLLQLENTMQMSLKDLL
Rango complex inh = qHTS Assay for Inhibitors of Rango (Ran-regulated importin-beta cargo) - Importin beta complex formation; Potency, µM (titrated, usually from 92.2 µM), without a hit: top-dose inhibition of complex formation; Rango CFP/YFP FRET sensor + importin beta, 45 min; 0.031% of 340,000 active; active = rising FRET ratio curve, often small or poorly fitted; inconclusive = mostly compound fluorescence or quenching in the first reads; inactive = flat curves in all reads;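 note: potency is the fitted concentration of half-maximal effect; 0% = DMSO wells and 100% = buffer wells lacking importin beta; nearly all actives have a fitted effect of over 15% in size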
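FRET biosensor Rango (snurportin 1 IBB between N-terminal EYFP and C-terminal Cerulean), 50 nM in PBS/1 mM DTT/0.02% Tween-20/0.1% BSA, preincubated 5 min RT with compound; 0.125 microM importin beta added, 45 min RT, CFP/YFP FRET ratio read.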
miR-21 FLuc = qHTS Assay for Modulators of miRNAs and/orActivators of miR-21; HeLa miR-21 FLuc reporter, luciferase, 48 h; Potency, µM (series often up to 38.3 µM), for the others: at the top dose reporter change, positive = more light; AID 2288, 2010; 340,000 tested, under 10 active; active = well fitted rising curve with a large enough effect; inconclusive = small, poorly fitted or top-dose-only effect; inactive = no such curve, though single readings can be large or run the other way;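 note: % of control where 0% means no effect; miR-21 action dims this reporter so a rising signal means less miR-21 action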
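HeLa cells stably expressing CMV-driven firefly luciferase with a downstream miR-21 binding sequence, endogenously expressing miR-21, were treated with titrations (up to about 40uM final) for 48 hours at 37 degree Celsius. Luciferase luminescence was read after lysis.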
Rango release inh = qHTS Assay for Inhibitors of RanGTP induced Rango (Ran-regulated importin-beta cargo) - Importin beta complex dissociation; Snurportin-1 (Homo sapiens) + GTP-binding nuclear protein Ran (Homo sapiens) + Importin …; Biochemical FRET Rango-importin beta, RanGTP-induced dissociation; Potency, µM (top dose mostly 46.1 µM), for the others: at the highest dose activity change, negative = inhibition; 0.071% of 340,000 active; active means falling FRET ratio curve, often poorly fitted, with flat reads before Ran was added; inconclusive means other falling curves, or compound fluorescence or quenching; inactive means flat or rising ratio curve;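 note: potency is the fitted concentration of half-maximal effect; % of control where 0% means no effect; nearly all actives have a fitted effect of over 45% in size; -100% = wells without RanGTP and RCC1; the record marks most hits as doubtful in a second field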
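Rango/importin beta premix (0.1/0.25 uM final), PBS + 1 mM DTT + 0.02% Tween-20 + 0.1% BSA; cpd 5 min RT; FRET pre-read; + RanGTP-RCC1 (0.6 uM Ran, 2 mM GTP, 0.2 uM RCC1); 45 min RT; FRET post-read, ex 430, em 486/530 nm.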
The depositor's hits bear a star; ? = inconclusive; . = not tested or not shown; & = joins results of further samples. Not all compounds are listed; the hit share may differ from the screen's.

no. | GLA inh pH 4.5 | Rango complex inh | structure | miR-21 FLuc | Rango release inh
1 | -8.8 | 1.0% | Cc1cc(C)cc(NC(=O)CN2C(=O)NC(C)(c3ccccc3)C2=O)c1 (stereo not given) | -4.1% | -2.6%
2 | 2.2 | 3.1% | C/C(=N/NC(=O)c1ccco1)c1cccc(NC(=O)c2ccc(C)o2)c1 | -27.6% | -0.5%
3 | -12.2 | -4.1% | Cc1nc(C)c(C(=O)O)c(-c2ccsc2)c1C(=O)O | -1.4% | -15.3%
4 | 4.5 | 0.2% | COc1ccccc1NC(=S)N1CCCC1 | -1.2% | 6.9%
5 | 2.7 | -1.4% | O=C(NC1CCCCC1)C(c1ccncc1)N(Cc1ccc2c(c1)OCO2)C(=O)c1cnsn1 (stereo not given) | -4.4% | 6.8%
6 | . | -0.3% | N#CC1(NC(=O)CSc2nc3ncc(Cl)cc3[nH]2)CCCCC1 | . | 4.3%
7 | -4.5 | 1.1% | COc1ccccc1CCN=C(N)NS(=O)(=O)c1ccc(C)cc1 | -8.0% | 16.3%
8 | 2.5 | 1.5% | CSC1=NC2(C)CCCCC2C12C=CC(=O)C=C2 (stereo not given) | -17.2% | 3.5%
9 | -2.1 | -0.1% | CCOc1ccc(OCC)c(NC(=O)C2CCN(S(=O)(=O)c3cnc[nH]3)CC2)c1 | -7.4% | 18.0%
10 | -4.7 | -3.9% | C[N+](C)(C)CCCNC(=O)c1ccc(/C=N/O)nc1 | 0.5% | -23.0%

Full records, quoted from the list:
Listed for C[N+](C)(C)CCCNC(=O)c1ccc(/C=N/O)nc1 → GLA inh pH 4.5 = -4.7; Rango complex inh = -3.9%; miR-21 FLuc = 0.5%; Rango release inh = -23.0%
Listed for Cc1nc(C)c(C(=O)O)c(-c2ccsc2)c1C(=O)O → GLA inh pH 4.5 = -12.2; Rango complex inh = -4.1%; miR-21 FLuc = -1.4%; Rango release inh = -15.3%

Further records follow.
no. | GLA inh pH 4.5 | Rango complex inh | structure | miR-21 FLuc | Rango release inh
11 | 9.9 | 0.2% | Cc1ccccc1C(=O)NCC(=O)NNC(=S)NC(=O)c1ccccc1C | -6.5% | ?
12 | . | 0.6% | CCCn1c(=O)cc(N)n(-c2ccc(OC(F)(F)F)cc2)c1=O | -0.5% | 13.5%
13 | -0.1 | -2.7% | CC(C)[C@H](NC(=O)c1cccc(S(=O)(=O)N2CCOCC2)c1)C(=O)Nc1nc2ccccc2s1 | -39.5% | 8.1%
14 | -12.5 | 0.3% | c1ccc(CCc2ccccc2-c2nc(-c3cccnc3)no2)cc1 | -1.2% | 9.9%
15 | . | -1.0% | CCC(=O)N1CCc2cc(Br)cc(S(=O)(=O)N3CCCC(C(=O)NC(C)(C)C)C3)c21 (stereo not given) | -0.7% | 1.6%
16 | -8.5 | -6.6% | Cc1cccc2sc(NC(=O)c3ccc(NS(=O)(=O)c4cccs4)cc3)nc12 | -9.6% | 4.0%
17 | 1.4 | 0.9% | O=[N+]([O-])c1nn(-c2ccccc2)n(O)c1=NC1CCN(Cc2ccccc2)CC1 | 1.5% | 5.6%
18 | . | -3.1% | CS(=O)(=O)Nc1ccccc1C(=O)Nc1cc2c(cc1C(=O)O)OCCCO2 | -0.4% | 2.3%
19 | 7.8 | 4.0% | Cc1[nH]c2ccccc2c1/C=N/NC(=O)CNC(=O)c1ccc2c(c1)OCO2 | -7.5% | -15.4%
20 | . | -3.1% | Cc1c(C(=O)N2CCC(C)CC2)sc2ncn(CC(=O)N3CCC(C)CC3)c(=O)c12 | -2.9% | -10.5%
21 | -2.0 | -2.8% | Cc1ccc(S(=O)(=O)NCCSc2nnnn2-c2cc(C)ccc2C)cc1 | 10.4% | 0.1%
22 | -0.6 | ? | CCOC(=O)C1=C(c2ccc(OC)cc2)C(=O)c2ccccc2C1=O | ? | -19.6%
23 | . | -0.5% | CCCCN(c1nc2ccccc2nc1Cl)S(=O)(=O)c1ccc(C)cc1 | 1.4% | 1.0%
24 | . | 0.9% | COc1ccc(CCN(C)C2CCCN(C(=O)c3sccc3C)C2)cc1OC (stereo not given) | -4.6% | -9.5%
25 | -2.2 | 2.5% | CN(C)CCNC(=S)Nc1ccccc1Cl | -10.8% | -2.0%
26 | -8.0 | -1.2% | O=C(c1ccc2c3c(cccc13)CC2)C1CCCN(Cc2ccc(OCCO)cc2)C1 (stereo not given) | 4.4% | 3.6%
27 | . | -0.6% | Cc1c(Cl)cccc1NC(=S)Nc1ccc(S(=O)(=O)Nc2ncccn2)cc1 | . | 1.7%
28 | 4.8 | 2.4% | O=C(Cn1cnc2scc(-c3ccc(F)cc3)c2c1=O)N1CCOCC1 | -2.3% | 4.1%
29 | -2.5 | 1.8% | CC1CC(CCC(=O)NC(=S)Nc2ccc(S(N)(=O)=O)cc2)C(=O)O1 (stereo not given) | -1.5% | 8.6%
30 | . | -0.5% | O=C(c1cccc(N2CCCC2=O)c1)N1CCN(c2ccc(F)cc2)CC1 | -1.7% | -9.4%
31 | . | 0.7% | COc1ccc(OCc2cc(C(=O)NC3CCc4ccccc43)no2)c(Cl)c1 (stereo not given) | 0.8% | 0.4%
32 | 2.9 | -3.5% | COc1ccccc1NCC(=O)n1nc(C)cc1C | 1.5% | -0.8%
33 | -4.1 | 1.6% | CN(C)S(=O)(=O)c1ccc(NC(=O)COc2ncnc3sccc23)cc1 | -0.4% | -3.5%
34 | -4.5 | 0.6% | COc1ccc(N(C(=O)Cn2cnc3ccccc32)C(C(=O)NC2CCCCC2)c2ccccc2)cc1 (stereo not given) | 1.6% | 13.4%
35 | -2.8 | 0.8% | O=C(NCc1cccnc1)c1cc(Cl)ccc1[N+](=O)[O-] | 0.7% | 2.0%
36 | -2.5 | 2.9% | COCCN1CCN(c2c3c(nc4cc(-c5cccc(F)c5)nn24)CCC3)CC1 | -11.1% | -5.6%
37 | . | 3.5% | O=C1CCCC2=C1C(c1cccc(Br)c1)n1nc(-c3ccco3)nc1N2 (stereo not given) | . | -4.5%
38 | 0.3&-3.6 | 0.0% | Clc1ccc(N2CCN(Cc3c[nH]c4ncccc34)CC2)cc1 | . | 1.7%
39 | . | -3.0% | Cc1ccc2c(c1)N(CC(=O)N1CCC(O)CC1)C(=O)CO2 | 2.3% | 9.0%
40 | -4.4 | 5.5% | CC(C)C[C@H](NC(=O)c1nc[nH]c1C(=O)N(C)Cc1ccccc1)C(=O)OC(C)(C)C | -0.4% | 0.7%
41 | . | ? | CCN(CC)c1ccc(/C=N/N2CC(=O)NC2=S)cc1 | . | ?
42 | 2.1 | -5.1% | COCC(=O)Nc1ccc(C(N)=O)cc1 | -5.2% | 0.9%
43 | . | 0.2% | OCC[C@H]1C[C@@H](O)[C@H](O)[C@@]2(CCCCO2)O1 | . | -1.1%
44 | -2.2 | 0.1% | Cc1cccc(N2C(=O)C(Cl)=C(N3CCOCC3)C2=O)c1 | 0.1% | 8.1%
45 | -4.8 | -2.7% | CC(=O)c1c(C)nc(-c2ccc3c(c2)OCO3)n1O | -11.6% | -0.8%
46 | 2.1 | 0.3% | CC1=CC(C)(C)NC(=S)N1c1cccc2ccccc12 | -3.8% | 1.9%
47 | 2.3 | 0.2% | CC1CCCCN1S(=O)(=O)c1cccc(S(=O)(=O)N2CCOCC2)c1 (stereo not given) | 0.3% | -20.0%
48 | 4.4 | 1.0% | Cc1nc(CSc2ccc(Cl)cc2)cc(N2CCOCC2)n1 | -30.0% | 1.2%
49 | -5.1 | 0.3% | COC(=O)c1[nH]c(C)c(/C(O)=C2\C(=O)C(=O)N(CCN3CCOCC3)C2c2cccnc2)c1C (stereo not given) | -5.2% | 4.2%
50 | -2.0 | 0.5% | COc1ccc(-c2nn(-c3ccccc3)cc2/C=N/N2C(=O)CSC2=S)cc1 | -32.1% | 9.7%
51 | -1.6 | -1.3% | NNC(=O)c1nc(-c2cccc(-n3cccc3)c2)no1 | -2.2% | -2.7%
52 | 3.3 | . | C(=C\c1ccccn1)/c1cccnc1 | -38.3% | .
53 | . | -1.7% | CCN(CC(=O)NCc1ccc(Cl)cc1)C(=O)CSCC(=O)Nc1cccc(C)c1 | -1.4% | 5.6%
54 | . | 1.0% | O=C(NCC(c1cccs1)N1CCOCC1)C1CCN(S(=O)(=O)c2cc(Cl)ccc2Cl)CC1 (stereo not given) | . | -8.7%
55 | 8.2 | -3.8% | COc1cccc(/C=C(\C#N)C(=O)NC2CCS(=O)(=O)C2)c1 (stereo not given) | 1.3% | 0.4%
56 | . | 1.0% | COCCn1c(SCC(=O)Nc2ccc3[nH]c(=O)[nH]c3c2)nc2ccccc21 | . | -12.6%
57 | . | 1.0% | CCCOc1ccc(C(=O)NNC(=O)CCNC(=O)c2ccco2)cc1OC | . | 6.9%
58 | . | 0.8% | CC1CCCN(C(=O)CCCNC(=O)c2ccc(Cl)cc2)C1 (stereo not given) | . | -15.1%
59 | 2.0 | 0.5% | CCCOC(=O)CCCC[C@H]1SC[C@@H](NC(=O)OC)[C@H]1NC(=O)OC | -1.2% | ?
60 | -3.2 | 1.4% | Oc1ccccc1N1CCN(c2ncccn2)CC1 | -12.5% | 0.0%

Going on with the list.
no. | GLA inh pH 4.5 | Rango complex inh | structure | miR-21 FLuc | Rango release inh
61 | -6.2 | 0.4% | CCOC(=O)c1cn(CC(=O)Nc2ccc(OC)cc2OC)nn1 | 3.7%&6.3% | 1.1%
62 | -7.3 | -1.4% | COc1cc2c(C(=O)N3CCN(c4ccccc4)CC3)c(C)oc2cc1Br | -1.7% | 1.8%
63 | 3.8 | -1.2% | COc1ccc(CN2C(=O)[C@@H]3C(c4ccccc4Cl)=NO[C@@H]3C2=O)cc1 | 0.1% | 4.0%
64 | 0.0 | 0.9% | O=C(Nc1cccc(-c2cnc3ccccc3n2)c1)c1ccc(Cl)cc1 | -5.7% | 1.2%
65 | 4.5 | 2.8% | CCOC(=O)c1cc(-c2ccccc2)n(CC(=O)Nc2ccc(OC)c(OC)c2)c1C | 4.4% | 1.6%
66 | 5.5 | -3.8% | Cc1nnc(NC(=O)c2ccc(S(=O)(=O)N3CCc4ccccc4C3)cc2)o1 | -2.3% | 4.7%
67 | . | -0.1% | COCc1nc2oc3ccccc3c(=O)c2cc1C(=O)OC | -28.2% | 5.8%
68 | 0.9 | 0.2% | CCCc1nc(SCc2ccccn2)c2c(=O)n(C)c(=O)n(C)c2n1 | -1.4% | 2.6%
69 | 3.4 | 2.9% | CCS(=O)(=O)N1CCN(C(C)CCc2ccccc2)CC1 (stereo not given) | -7.8% | 5.3%
70 | 0.3 | -5.9% | c1ccc2c(c1)CC/C2=N/Nc1nc2ccccc2[nH]1 | -3.3% | 0.1%
71 | -1.4 | -1.1% | O=C(c1cc(-c2ccccc2)on1)N1CCCc2ccccc21 | -46.9% | -15.0%

Structures shown so far that have fluorine, in the order listed:
no. | GLA inh pH 4.5 | Rango complex inh | structure | miR-21 FLuc | Rango release inh
12 | . | 0.6% | CCCn1c(=O)cc(N)n(-c2ccc(OC(F)(F)F)cc2)c1=O | -0.5% | 13.5%
28 | 4.8 | 2.4% | O=C(Cn1cnc2scc(-c3ccc(F)cc3)c2c1=O)N1CCOCC1 | -2.3% | 4.1%
30 | . | -0.5% | O=C(c1cccc(N2CCCC2=O)c1)N1CCN(c2ccc(F)cc2)CC1 | -1.7% | -9.4%
36 | -2.5 | 2.9% | COCCN1CCN(c2c3c(nc4cc(-c5cccc(F)c5)nn24)CCC3)CC1 | -11.1% | -5.6%
